Screens (PubChem BioAssay)
KCNQ2 inh: KCNQ2 potassium channel inhibitors, primary screen, cell-based, CHO-K1, FluxOR thallium flux, B-score (AID 2156); O88943; 20 min; stronger effect = lower value; only compounds with negative scores are shown here; some inactives read as strong as hits; B-score at 10 µM; 310,000 compounds, 1.1% hits;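 active = fluorescence ratio B-score at most minus 3 library SDs, with starting brightness B-score within 2 library SDs, cut at about -5.5 in these data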
Target sequence (O88943 whole entry, looked up): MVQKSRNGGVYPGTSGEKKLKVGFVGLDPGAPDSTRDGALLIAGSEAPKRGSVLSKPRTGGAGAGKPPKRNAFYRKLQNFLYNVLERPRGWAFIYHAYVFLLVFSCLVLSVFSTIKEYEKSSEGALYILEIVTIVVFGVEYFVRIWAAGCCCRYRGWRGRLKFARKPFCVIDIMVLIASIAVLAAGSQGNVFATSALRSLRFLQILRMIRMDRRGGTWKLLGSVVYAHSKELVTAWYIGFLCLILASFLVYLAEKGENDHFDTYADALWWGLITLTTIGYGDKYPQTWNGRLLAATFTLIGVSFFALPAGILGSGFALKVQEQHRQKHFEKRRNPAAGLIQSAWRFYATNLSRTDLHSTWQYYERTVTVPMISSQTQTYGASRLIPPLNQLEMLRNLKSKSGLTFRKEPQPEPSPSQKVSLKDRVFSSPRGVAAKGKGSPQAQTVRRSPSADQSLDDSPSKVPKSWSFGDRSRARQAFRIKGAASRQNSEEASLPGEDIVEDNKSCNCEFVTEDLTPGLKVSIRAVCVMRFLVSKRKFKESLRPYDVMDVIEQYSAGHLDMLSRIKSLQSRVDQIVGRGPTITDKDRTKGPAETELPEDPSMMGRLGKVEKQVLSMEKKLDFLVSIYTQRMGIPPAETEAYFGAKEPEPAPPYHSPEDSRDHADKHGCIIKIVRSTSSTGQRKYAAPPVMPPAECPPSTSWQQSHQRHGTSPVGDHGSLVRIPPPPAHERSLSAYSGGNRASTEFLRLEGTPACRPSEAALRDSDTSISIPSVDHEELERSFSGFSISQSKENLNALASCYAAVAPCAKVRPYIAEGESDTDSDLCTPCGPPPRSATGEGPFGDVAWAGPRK
KCNQ2 inh baseline: further read-out of KCNQ2 inh, marked with its call; B-score; measured here: initial fluorescence intensity artifact check;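 brightness before thallium and not channel activity; 0 = typical well and far values either way flag optical interference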
* = called active by the depositor; i = inactive. Not all compounds are listed (hit frequency here may not be typical).

KCNQ2 inh | KCNQ2 inh baseline | SMILES
i | -1.4 | Cc1ccc(S(=O)(=O)Nc2nc3ccccc3nc2NCc2ccc3c(c2)OCO3)cc1C
i | -0.02 | O=C(c1ccc(F)cc1)C1CCN(C(=S)Nc2ccc(F)cc2)CC1
i | -0.48 | CCN(CC(=O)Nc1c(F)cccc1F)C(=O)CCNC(=O)c1ccc([N+](=O)[O-])cc1
i | 2.8 | CCc1c(C)nc2cc(C)[nH]n2c1=O
i | 2.7 | Cc1ccc(S(=O)(=O)c2nc(S(C)(=O)=O)sc2N2CCCCCC2)cc1
i | -1.6 | COc1ccc(OC)c(NC(=O)CN(C)CC(=O)Nc2ccccc2Br)c1
i | -0.25 | COc1ccc(NC(C)=O)cc1NC(=O)c1ccc(C#N)cc1
i | 0.04 | CCOP(=O)(OCC)c1nc(-c2cccc3ccccc23)oc1NCc1ccccc1
i | 1.5 | COc1ccccc1CCNC(=O)C(=O)NCC1OCCN1S(=O)(=O)c1cccs1 (stereo not given)
i | 1.3 | COc1ccc(-c2cc(C(F)(F)F)nc(N3CCOCC3)n2)cc1
i | 1.8 | O=S(=O)(Nc1ccncc1Cl)c1ccccc1
i | 1.4 | Cc1cccc(NC(=O)COc2ccccc2)c1
i | 0.72 | Cc1csc2nnc(N)n12
i | 0.5 | Cc1c(C)n(Cc2ccc(F)cc2)c2ccc(C(=O)N3CCN(c4ccccn4)CC3)cc12
i | -3.1 | COc1ccc(-c2cc(NCc3ccccn3)n3ncnc3n2)cc1
i | -0.65 | COc1cccc(NC(=O)CSc2nc3n[nH]c(C)c3c(=N)n2-c2cccc(OC)c2)c1
i | 2.5 | COc1ccc(N2CCN(C(=S)NC(C)c3ccccc3)CC2)cc1 (stereo not given)
i | 2.4 | CCn1c(-c2ccncc2)n[nH]c1=S
i | -0.75 | CCn1c(SCC(=O)Nc2cc(F)ccc2C)nnc1-c1ccccc1O
i | -0.05 | O=C(c1cccnc1)N1CCC(c2nc3ccccc3[nH]2)CC1
i | 0.34 | Cn1c(=O)n(C)c2cc(S(=O)(=O)Nc3ccccc3O)ccc21
i | 1.2 | CC(=O)N1c2ccc(S(=O)(=O)NCCC(=O)Nc3ccc(C)c(F)c3)cc2CC1C (stereo not given)
i | 0.45 | COc1ccc(/C=C(\C#N)C(=O)NCc2ccccc2)cc1O
i | -0.25 | CC(Oc1ccc(Br)cc1)C(=O)O/N=C(\N)c1ccncc1 (stereo not given)

Among those listed so far, 2 have two or more sulfur atoms:
KCNQ2 inh | KCNQ2 inh baseline | SMILES
i | 2.7 | Cc1ccc(S(=O)(=O)c2nc(S(C)(=O)=O)sc2N2CCCCCC2)cc1
i | 1.5 | COc1ccccc1CCNC(=O)C(=O)NCC1OCCN1S(=O)(=O)c1cccs1 (stereo not given)

Other structures
KCNQ2 inh | KCNQ2 inh baseline | SMILES
i | 0.28 | Cc1ccc(-c2n[nH]c(=O)c3ccccc23)cc1S(=O)(=O)N(C)CCO
i | 0.38 | COc1ccc(NC(=O)C/C(C)=N/NC(=O)CCc2ccccc2)c(OC)c1
i | -0.64 | COc1ccc(NC(=O)c2ccc3c(=O)n(-c4ccc(OC)cc4OC)c(=S)[nH]c3c2)cc1
i | 7.9 | CC(=O)/C(C[N+]1(C)CCCCC1)=N\O
i | 1.5 | O=C(Nc1ccccc1)N(C1=NCCCCS1)c1ccccc1
i | -0.58 | CCOC(=O)c1ccc(NC(=S)NCCc2ccccc2F)cc1
i | 0.48 | O=C(COC(=O)/C=C/c1ccc(OC(F)F)cc1)Nc1ccc(N2CCOCC2)cc1
i | 0.81 | Nc1nnc(SCC(=O)OCC(=O)Nc2ccccc2)s1
i | 0.07 | COc1ccc2sc(C)nc2c1NC(C)=O
i | 1.4 | O=C(C1CC(=O)N(c2ccc(Br)cc2)C1)N1CCCC1 (stereo not given)
i | -2 | CC1CCc2c(C(=O)NCc3ccco3)csc2C1 (stereo not given)
i | -0.23 | O=C(c1cn(-c2ccccc2)nc1-c1ccccc1)N1CCOCC1
i | 1 | COc1ccc(-c2nnc(Sc3nc4ccccc4o3)c3ccccc23)cc1
i | 0.04 | O=[N+]([O-])c1cc(S(=O)(=O)N2CCOCC2)ccc1N1CCCC1
i | -0.14 | COc1ccccc1NC(=O)c1cc(S(=O)(=O)NC2CCCC2)ccc1F
i | -2.2 | Fc1ccc(CSc2ncnc3ccccc23)cc1
i | -2.7 | O=C(C(=O)N1CCN(c2ccc(F)cc2)CC1)c1c[nH]c2ccccc12
i | 0.76 | O=C(c1cccs1)N(Cc1nc2sc3c(c2c(=O)[nH]1)CCCC3)C1CCCC1
i | -0.3 | CCC(CC)c1nnc(NC(=O)c2cccc(S(=O)(=O)N3CCc4ccccc43)c2)s1
i | -0.72 | Cc1ccc(C)c(Oc2ncnc(N)c2[N+](=O)[O-])c1
i | -0.09 | COc1ccc(Cn2c(=O)c3[nH]cnc3n(-c3ccccc3C)c2=O)cc1
i | 0.59 | CCN1C(=O)/C(=C/c2nc3ccccc3c(=O)n2-c2ccccc2)c2ccccc21
i | 3 | CN(C)S(=O)(=O)Oc1cccc(C(=O)Nc2ccc(Cl)c(Cl)c2)c1
i | 1.4 | CN(C)c1ccc(/C=N/n2c(COc3ccccc3)n[nH]c2=S)cc1
i | -1.1 | CCCCOc1ccc(-c2c(C#N)c(N)[nH]c(=S)c2C#N)cc1
i | -0.03 | COC(=O)c1cc(S(=O)(=O)Nc2c(C)cccc2C)cn1C
i | -0.68 | COc1cccc(CNC(=O)CCNS(=O)(=O)c2cccs2)c1
i | -0.48 | COc1ccc(NC(=O)CN(C)C(=O)CCc2c[nH]c3ccccc23)cc1
i | -1.8 | COc1ccc(CNc2ccc(-c3ccc(OC)cc3)nn2)cc1
i | -0.25 | CCCC(C)NC(=O)Cc1ccccc1 (stereo not given)
i | -2.1 | COc1cc(CN2CCN(CCc3ccccc3)C(CCO)C2)cc(OC)c1 (stereo not given)
i | 0.58 | CCCCn1c(N)c(N(CCOC)C(=O)CSc2nnc(-c3ccc(F)cc3)n2N)c(=O)[nH]c1=O
i | -0.45 | CCOc1ccc(CC(=O)NNC(=S)NC)cc1Br
i | -1.5 | COc1ccccc1Oc1nc(C)c(C(C)=O)cc1C#N
i | 2.3 | COc1ccc(CCCNC(=O)C2CCC(=O)N(Cc3ccc(Cl)cc3)C2)cc1 (stereo not given)
i | 1.8 | O=C(Cc1ccc(Cl)cc1)NNC1CC(=O)N(c2ccc3ccccc3c2)C1=O (stereo not given)
i | -0.06 | COc1cccc(CC(=O)N[C@@H](CCSC)c2nc3ccccc3[nH]2)c1
i | -0.55 | O=C(c1cnc2c(c1)COc1ccc(Cl)cc1-2)c1ccccc1O
i | 0.37 | COc1ccc(C2CC(c3cccs3)=NN2C(=O)COC(=O)c2cncc(Br)c2)cc1OC (stereo not given)
i | -0.91 | COc1cc(NC(=O)c2ccnc(N)c2)cc(C(=O)Nc2cccc(C(F)(F)F)c2)c1
i | -0.17 | Cc1ccccc1CSCCNC(=O)CN(c1ccc2c(c1)OCO2)S(C)(=O)=O
i | 0.02 | COc1ccc(NC2CCCN(C(=O)c3cccnc3)C2)cc1 (stereo not given)
i | 0.36 | O=C(NC(Cc1ccccc1)C(=O)O)/C(=C/c1ccccc1)NC(=O)c1cccc(Br)c1 (stereo not given)
i | 1.7 | Cc1sc2ncnc(N3CCOCC3)c2c1C
i | -2.5 | O=c1c2ccccc2c(C=NCCO)c(O)n1-c1ccccc1
i | -0.77 | COc1ccc(N2C(=O)C(F)(F)C2c2ccc(C)cc2)cc1OC (stereo not given)
i | -0.18 | O=C(NN1CCOCC1)c1ccc(F)cc1
i | -0.56 | Cc1ccc(-c2ccnc3c(Cl)c(C)nn23)cc1
i | 0.96 | O=C(COC(=O)C1=COCCO1)Nc1cccc(S(=O)(=O)N2CCOCC2)c1
i | -1 | O=C1NC(=O)C(c2ccccc2)(c2ccccc2)N1
i | -0.03 | COc1cc(C(=O)N(Cc2ccc(F)cc2)C2CCS(=O)(=O)C2)cc(OC)c1OC (stereo not given)
i | -0.89 | Cc1ccc(-n2nc3c(c2NC(=O)c2ccc4c(c2)OCO4)CS(=O)(=O)C3)cc1C
i | -0.63 | CCn1cc(C(=O)NCC2CCCO2)c(=O)c2cc(S(=O)(=O)N(C)C)ccc21 (stereo not given)
i | -0.66 | COc1ccc(C(=O)N2CCC(n3nccc3NC(=O)C3CC3)CC2)cc1F
i | 2.1 | COCc1cc(C)nc(OCC(=O)N/N=C/c2ccc(O)cc2)c1C#N
i | 0.02 | Cc1cc(C(=O)CSc2nncs2)c(C)n1-c1c(C)n(C)n(-c2ccccc2)c1=O

Additional records follow:
KCNQ2 inh | KCNQ2 inh baseline | SMILES
i | -0.78 | COc1ccc(C(=O)CSc2nnc(-c3ccc(C)cc3)o2)cc1
i | -1 | C=CCNc1nc(-c2ccc(O)c(C(N)=O)c2)cs1
i | -1.3 | COc1ccc(NS(=O)(=O)c2cc(C)ccc2C)cc1
i | -0.51 | Cc1ccc2[nH]c(=O)c(CN(CCCN3CCOCC3)C(=O)Nc3cccc(Cl)c3)cc2c1
i | -0.61 | COc1ccccc1C(=O)N(Cc1ccccc1)c1ccc(C)cc1
i | 0.78 | CCC(C)(C(=O)NC1CCCC1)N(C(=O)CC1NC(=O)NC1=O)c1c(C)n(C)n(-c2ccccc2)c1=O (stereo not given)
i | -0.04 | CC1CCN(C(=O)CCc2nnc(-c3ccccc3)o2)CC1
i | 0.01 | CCN(CC)c1ccc(/C=N/NC(=O)CN2CCCc3ccccc32)cc1
i | -0.33 | CCn1c(=O)c2sccc2n(Cc2cc(C(=O)OC)ccc2OC)c1=O
i | 1.5 | O=C(c1ccc(N2CCCC2)c([N+](=O)[O-])c1)N1CCN(c2ccccn2)CC1
-5.9* | -0.68* | O=C(c1ccc(Cl)c(Cl)c1)N1CCC(=O)N(C(COCc2ccc(Cl)cc2)Cc2ccccc2)CC1 (stereo not given)
i | 0.77 | Cc1cccc(C)c1NC(=O)CNC(=O)c1ccccc1
-9.6* | -0.73* | CCc1nc2ccccc2c(C(=O)OCCN2C(=O)c3ccccc3C2=O)c1C
i | -2 | CSc1cnc2c(=O)n(C)c(=O)[nH]c2n1
i | 1.5 | Brc1ccc(-c2noc(-c3ccccc3)n2)o1
-6.9* | -0.92* | COc1cccc(CNC(=O)C2=C(C)C(=O)OC23CCC(C)CC3)c1 (stereo not given)
i | -0.54 | Cc1onc(-c2ccccc2Cl)c1C(=O)Nc1cccc2cccnc12
i | 0.92 | COc1ccc(S(=O)(=O)N2CCC[C@H]2C(=O)NCc2ccc(Cl)cc2)cc1
i | -0.01 | CC(C)CCC(O)(c1ccccc1)C(CN1CCOCC1)c1ccccc1 (stereo not given)
i | 0.38 | NC(=NCCc1ccccc1)NC(=O)c1cc(Cl)ccc1O
i | 0.75 | CN(C(=O)COC(=O)c1cccs1)c1c(N)n(Cc2ccccc2)c(=O)[nH]c1=O
i | -0.86 | COc1ccc(NC(=O)Cc2nnc(SCC(=O)NC3CCCCC3C)n2C)cc1 (stereo not given)
i | 1.2 | O=C(COC(=O)C1CCN(S(=O)(=O)c2cccs2)CC1)c1cc2ccccc2o1
i | -0.28 | COc1ccccc1CNc1nc(=S)[nH]c2cc(OC)c(OC)cc12
i | -1.1 | O=C(c1ccccc1Oc1nnnn1-c1ccccc1)N1CCOCC1
i | -0.24 | O=C(N/N=C/c1ccccc1F)NC12CC3CC(CC(C3)C1)C2
i | -3.1 | CC(C)(CNc1ccc(S(=O)(=O)C(F)(F)F)cc1[N+](=O)[O-])N1CCOCC1
i | -0.27 | O=C1c2ccccc2C(=O)N1CCOc1ccccc1Cl
i | 0.56 | COc1cc2c(cc1NC(=O)CSc1nccn1C)oc1ccccc12
-5.6* | 1.1* | Cc1ccc(C)c(C2NC(=O)c3ccccc3N2)c1 (stereo not given)
i | -0.8 | CC1Cc2nc(SCC(=O)Nc3ccc4c(c3)OCO4)n(CCc3ccccc3)c(=O)c2S1 (stereo not given)
i | 2.2 | O=[N+]([O-])c1ccc(N/N=C/C=C/c2ccco2)cc1
i | 1.9 | Cc1c(OCc2nn[nH]n2)ccc2c3c(c(=O)oc12)CCCC3
i | 0.64 | Cn1cc(C[C@H](NC(=O)OC(C)(C)C)C(=O)N[C@H](CO)Cc2ccccc2)c2ccccc21
i | 1.5 | Cc1ccccc1-n1ncc(C(C)NC(=O)c2ccccc2)c1C (stereo not given)
i | -0.04 | O=C(COC(=O)c1cccc(Br)c1)NCCC1=CCCCC1
i | -0.06 | CCc1cc(C(=O)N2CCCC(C(=O)c3ccc(Cl)cc3)C2)no1 (stereo not given)
i | 0.92 | COc1ccccc1NC(=O)Cn1cc(C(=O)C(=O)N2CCOCC2)c2ccccc21
i | -0.75 | Cc1cc(NC(=O)c2ccccc2C)n(-c2cccc(F)c2)n1

By substructure, the entries above containing an aryl thioether with sulfur outside any ring
KCNQ2 inh | KCNQ2 inh baseline | SMILES
i | -0.65 | COc1cccc(NC(=O)CSc2nc3n[nH]c(C)c3c(=N)n2-c2cccc(OC)c2)c1
i | -0.75 | CCn1c(SCC(=O)Nc2cc(F)ccc2C)nnc1-c1ccccc1O
i | 0.81 | Nc1nnc(SCC(=O)OCC(=O)Nc2ccccc2)s1
i | 1 | COc1ccc(-c2nnc(Sc3nc4ccccc4o3)c3ccccc23)cc1
i | -2.2 | Fc1ccc(CSc2ncnc3ccccc23)cc1
i | 0.58 | CCCCn1c(N)c(N(CCOC)C(=O)CSc2nnc(-c3ccc(F)cc3)n2N)c(=O)[nH]c1=O
i | 0.02 | Cc1cc(C(=O)CSc2nncs2)c(C)n1-c1c(C)n(C)n(-c2ccccc2)c1=O
i | -0.78 | COc1ccc(C(=O)CSc2nnc(-c3ccc(C)cc3)o2)cc1
i | -2 | CSc1cnc2c(=O)n(C)c(=O)[nH]c2n1
i | -0.86 | COc1ccc(NC(=O)Cc2nnc(SCC(=O)NC3CCCCC3C)n2C)cc1 (stereo not given)
i | 0.56 | COc1cc2c(cc1NC(=O)CSc1nccn1C)oc1ccccc12
i | -0.8 | CC1Cc2nc(SCC(=O)Nc3ccc4c(c3)OCO4)n(CCc3ccccc3)c(=O)c2S1 (stereo not given)
